# From PubChem
# Bead autofluor = flagged as autofluorescent in microsphere protease counterscreen. compound autofluorescence counterscreen, microsphere flow cytometry; hits give high values. fluorescence intensity (no concentration beside the values). hit rate 3.1% among 360,000. AID 624483;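 active means at least 3 SD above the mean of all compounds, about 16000 in these data; inconclusive means too few beads counted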;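 further: 100 nL of 1 mM stock went into each well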
# Sa ugtP lethal = growth inhibition of S. aureus ugtP deletion strain | AID 1259309 | S. aureus RN4220 ugtP deletion, OD600 growth, 16 h; some inactives read as strong as hits | growth inhibition, % (no concentration beside the values) | hit rate 0.54% among 330,000;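 active means z-score under -3 and OD600 up to 0.15 on both plates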;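 further: plate controls were untreated wells for no effect and antibiotic for full effect; wells of about 80 µL received 100 nL stock; the first replicate is given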
# PrP 5UTR inh = suppresses PrP 5' UTR mRNA reporter expression. cell-based PrP 5' UTR mRNA reporter, plate reader. hit rate 0.35% among 340,000. inhibition, % (no concentration beside the values);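 active means every replicate at 50% or more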;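 further: 0 = median of the neutral control wells; tested in H4 reporter cells; numbers are from one replicate; inactives centre near -14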
# Sa RN4220 lethal = S. aureus RN4220 growth inhibition | hit rate 0.33% among 330,000 | inhibition, % (concentration not given with the values) | OD600, 16 h;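 active means z-score of -3 or lower and OD600 up to 0.18 on both plates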;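 further: plate controls were untreated cells for no effect and reference antibiotic for full effect; stock transfer was 100 nL into about 80 µL; one replicate is shown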
# BJeLR lethal = kills HRASV12-expressing BJeLR cells; BJeLR (HRASV12) viability, CellTiter-Glo ATP luminescence, 48 h; reference of the scale not given here; inhibition, % (test concentration not listed); hit rate 0.17% among 300,000; AID 1554;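 active means replicate mean above 50%; inconclusive means above 50% but judged a plate artefact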;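 further: 50 nL library stock added to about 25 µL; numbers are from one replicate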
# Mtb hypoxia rep = reduces hypoxia-regulated biosensor signal in M. tuberculosis | M. tuberculosis hypoxia-regulated fluorescent reporter, fluorescence | fluorescence inhibition, % (test concentration not listed) | hit rate 0.1% among 300,000 | AID 1159583;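 active means 35 to 45% if threefold the growth effect, above 45% if 1.5-fold the growth effect; inactive means the rest, general growth blockers included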;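 further: wells of about 50 µL received 100 nL stock; 0% = vehicle wells and 100% = reference inhibitor wells; whole bacteria with a GFP reporter of the hypoxia response; strong numbers were not always called active; many hits fall short of the cut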
# Mtb hypoxia rep growth = further read-out of Mtb hypoxia rep, marked with its call; growth inhibition, %; measured here: M. tuberculosis growth (absorbance);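 0% = vehicle and 100% = reference antibiotic; read after six days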
# Active calls of the source: *; u = inconclusive; x = not tested or not shown.
# Below each SMILES: Bead autofluor	Sa ugtP lethal	PrP 5UTR inh	Sa RN4220 lethal	BJeLR lethal	Mtb hypoxia rep	Mtb hypoxia rep growth
COC(=O)[C@@]1(Cc2ccc(F)cc2)C2c3cc(C(=O)N4CCCC4)n(CCCNc4ncc(C(F)(F)F)cc4Cl)c3CC2CN1C(=O)c1ccccc1 (some centres undefined)
 : x	2	x	0.3	x	7	6
CC(=O)N1CCN(C(=O)c2ccc(C)c(S(=O)(=O)N3CCCCC3)c2)CC1
 : 3980	3	-15	0.6	x	5	-1
Cn1cnnc1SCC(=O)Nc1ccc2c(c1)CCC2
 : 5605	6	-9	2.7	-4	8	5
COc1ccccc1NC(=O)CCS(=O)(=O)c1ccc2c(c1)NC(=O)C(C)S2 (centres undefined)
 : 5230	9	-15	1.3	5	10	6
C=CCN(CC=C)S(=O)(=O)c1ccc2nsnc2c1
 : 6655	0	-14	-0.5	8	14	6
CCC(=O)N1CCN=C1SCc1cccc(F)c1
 : 4502	6	-20	3.6	5	-3	-7
CCC/C(=N\NC(=O)c1ccc(CSc2nncn2C)cc1)c1ccccc1
 : 2181	x	4	x	-21	x	x
COC(=O)c1ccc(NC(=O)COC(=O)c2cccc3c(=O)c(C)c(-c4ccccc4)oc23)cc1
 : 2171	-8	-11	5.2	-8	8	8
CCOc1cc(Br)cc(C(c2c(C(=O)O)[nH]c3ccccc23)c2c(C(=O)O)[nH]c3ccccc23)c1O
 : 4106	-1	-15	34	-2	-1	13
O=C1OCc2cc(NC(=O)C3CCCCC3)ccc21
 : 20191*	-12	-36	9.1	4	7	21
COc1ccc(C(C(=O)NC2CCCC2)N(CCN(C)C)C(=O)c2snc(C(N)=O)c2N)cc1 (centres undefined)
 : 8945	-2	-20	-1.1	6	0	3
OC(C#CCN1CCCCCC1)(c1ccccc1)c1cccnc1 (centres undefined)
 : 5485	1	-25	1.4	-3	-7	-11
CC(=O)NC(=Cc1ccccc1)c1ccccc1
 : x	5	x	5.2	x	18	14
[O-]c1n[n+](-c2ccc(Cl)cc2Cl)cc2ccccc12
 : 3418	2	1	5.0	9	10	9
Cc1ccc(NC(=O)/C(C#N)=C/c2ccc(Sc3nc(C)cc(C)n3)o2)cc1
 : 10089	3	-19	6.1	-3	12	4
O=C(C1CCC(CNc2nc(=S)[nH]c3ccccc23)CC1)N1CCN(c2ccccn2)CC1 (centres undefined)
 : 8722	2	-13	4.0	-7	4	2
C=CCc1cccc(C=NNC(=O)c2ccc3nc[nH]c3c2)c1O
 : x	3	x	1.5	x	-4	-12
C=CCSc1nnc(-c2ccncc2)n1-c1ccc(OCC)cc1
 : 9558	1	-24	0.3	7	8	0
N=c1sccn1CC(=O)Nc1ccccc1Sc1ccccc1
 : 3793	5	-5	3.5	-3	18	7
COc1nc(N/N=C/c2ccccc2F)nc(N2CCCCC2)n1
 : 22376*	x	-3	x	-25	x	x
CCC(NC(=O)c1cc(COc2ccc(F)c(F)c2)on1)c1ccncc1 (centres undefined)
 : 6237	5	-8	8.6	3	11	5
COc1cc2c(C(F)(F)F)c(-c3ccsc3)oc(=O)c2cc1OC
 : 3809	-12	-13	4.7	x	-4	-2
Cc1sc(NC(=O)CN(Cc2ccc(F)cc2)C(=O)C(C)C)c(C(N)=O)c1C
 : 9430	11	-9	6.2	-1	2	-3
COc1cc(NS(=O)(=O)c2ccc(NS(=O)(=O)c3ccc(C)cc3)cc2)nc(OC)n1
 : 3958	2	-17	4.0	0	-15	1
CCOC(=O)CNC(=O)c1cccs1
 : 4147	4	-36	4.5	9	9	14
O=C(Nc1c(Cl)cccc1Cl)c1ccc(-c2ccccc2)cc1
 : 9161	14	-50	8.7	-2	1	3
CCOC(=O)C(C)Oc1cccc2c(=O)n(CC(=O)N3CCCc4ccccc43)ccc12 (centres undefined)
 : 4713	2	1	4.6	-10	-9	-2
COc1ccccc1C(=O)NC(C)c1nc2ccccc2[nH]1 (centres undefined)
 : 4270	5	-12	0.3	-3	9	13
COC(=O)c1ccc(CSc2nnc3c(n2)[nH]c2ccccc23)cc1
 : u	9	-21	1.4	-7	1	3
Cn1c(=O)[nH]c(=O)c2c1nc(N1CCCC1)n2CCO
 : 3952	2	-11	1.6	-5	-3	8
CN(CCc1ccccn1)C1CC(=O)N(c2ccc(Cl)cc2)C1=O (centres undefined)
 : 3437	1	-10	-2.1	4	x	x
CCC(=NCCOc1ccc(Cl)cc1)c1c(O)n(C)c(=O)n(C)c1=O
 : 4179	-4	10	8.0	-7	-77	-19
CC(C)(C)n1nnnc1C(c1cccs1)N1CCN(C(=O)c2ccco2)CC1 (centres undefined)
 : 4022	-7	-19	-2.3	-4	-2	-12
COc1cc(-c2nnc(NC(=O)CCS(=O)(=O)c3ccccc3)o2)cc(OC)c1OC
 : 5498	0	1	2.0	3	-2	6
O=C(Nc1ccccc1C(=O)N1CCN(Cc2ccccc2)CC1)c1ccccn1
 : 3496	11	-23	-8.5	5	x	x
CC(C)[C@@H]1NC(=O)N(c2ccc(Oc3ccccc3)cc2)C1=O
 : 4502	0	-13	4.8	8	x	x
Cc1cc(=O)oc2cc(OCC(=O)N3CC(=O)Nc4ccccc43)c(Cl)cc12
 : 3838	-8	-3	-4.2	x	-6	4
CCCCS(=O)(=O)NC1=NCN(CCO)CN1
 : 4084	-1	12	0.9	-4	12	12
CN(C(=O)c1ccccc1OCc1ccc(F)cc1)c1c(N)n(Cc2ccccc2)c(=O)[nH]c1=O
 : 4768	-1	-12	0.3	x	2	-7
O=C(CSc1nnc(Cc2cc(=O)[nH]c(=O)[nH]2)n1-c1ccccc1)N1CCCc2ccccc21
 : 6400	-11	-2	-6.8	x	-5	4
CC(C)OCCCn1c(=O)c2ccccc2n2c(CCC(=O)N3CCN(c4ccccn4)CC3)nnc12
 : 5421	3	-5	1.7	-11	12	2
Cc1nonc1C(=O)NN=Cc1ccc([N+](=O)[O-])o1
 : x	60	x	9.8	x	23	36
CCOC(=O)NC(=O)C(=CNc1cccc(OC)c1)C(=O)NC(=O)OCC
 : 2488	5	-25	1.8	-3	5	1
CCc1ccc(/C=N/n2c(COc3ccccc3)n[nH]c2=S)cc1
 : 3639	x	-17	x	3	x	x
CS(=O)(=O)NCc1ccc(C(=O)O)cc1
 : 4395	7	-16	5.0	6	7	0
O=C(Nc1ccncc1)c1ccc(F)cc1
 : 3797	4	-22	-1.2	2	x	x
CN(CC(=O)Nc1ccc(F)cc1)CC(=O)Nc1ccc(F)c(F)c1F
 : 3181	5	-5	-4.2	1	-7	4
CCOC(=O)N1CCN(C(=O)c2ccc(S(=O)(=O)Nc3ccc(C)cc3)cc2)CC1
 : 3038	2	7	1.6	x	4	2
Cc1cccc(NC(=S)N=Nc2c(O)n(C)c3ccc(S(=O)(=O)N4CCOCC4)cc23)c1
 : 2088	6	22	5.7	7	10	-2
CCOc1ccccc1OCC(=O)NN=C(C)Cc1ccc(OC)cc1
 : x	1	x	2.3	x	4	-4
COc1cccc(/C=C2/Sc3ccc(C(=O)NCCN4CCCCCC4)cc3NC2=O)c1
 : 6739	-23	15	-2.5	-7	13	28
CC(=O)Nc1cccc(C(=O)NCC2(N3CCCCC3)CCCCC2)c1
 : 4069	6	-15	1.8	16	7	8
COc1ccc(OC)c([C@@H]2OCCC=C[C@H]2C)c1
 : 3786	x	-2	x	3	x	x
CC1(c2nnc(-c3ccc(Cl)cc3)o2)CC(c2ccncc2)=NO1 (centres undefined)
 : 3918	-1	-17	0.9	-3	1	3
COc1ccc(C2CC(=O)Oc3cc(C)c(Cl)cc32)cc1 (centres undefined)
 : 3799	-20	-6	25	x	-1	3
COC(=O)C1=C(C)Nc2[nH]c(=S)[nH]c(=O)c2C1c1ccc(O)cc1 (centres undefined)
 : 6530	1	-22	4.6	8	8	1
COC(=O)C(=O)N1CC2(C)CNCC(C)(C1)C2=O
 : 4196	x	-9	x	6	x	x
CC1Cc2ccccc2N1C(=O)COC(=O)c1n[nH]c(=O)c2ccccc12 (centres undefined)
 : 6689	1	-15	2.5	x	0	-5
O=C(NCCC(=O)N1O[C@@H]2C=C[C@H]1C2)OCC1c2ccccc2-c2ccccc21
 : 3364	-6	-26	7.0	x	11	6
Cc1ccccc1Cn1nc(C)c(NC(=O)c2cc3n(n2)C(C(F)F)CC(C(F)F)N3)c1C (centres undefined)
 : 2191	-2	-4	2.7	x	x	x

# Full records from above:
# `O=C(Nc1c(Cl)cccc1Cl)c1ccc(-c2ccccc2)cc1` across the screens: Bead autofluor = 9161; Sa ugtP lethal = 14; PrP 5UTR inh = -50; Sa RN4220 lethal = 8.7; BJeLR lethal = -2; Mtb hypoxia rep = 1; Mtb hypoxia rep growth = 3
# `CCC(NC(=O)c1cc(COc2ccc(F)c(F)c2)on1)c1ccncc1` (centres undefined) across the screens: Bead autofluor = 6237; Sa ugtP lethal = 5; PrP 5UTR inh = -8; Sa RN4220 lethal = 8.6; BJeLR lethal = 3; Mtb hypoxia rep = 11; Mtb hypoxia rep growth = 5

# Next results follow.
# Below each SMILES: Bead autofluor	Sa ugtP lethal	PrP 5UTR inh	Sa RN4220 lethal	BJeLR lethal	Mtb hypoxia rep	Mtb hypoxia rep growth
COc1ccc(NC(=O)c2ccccc2NC(=O)CSc2ccccc2)cc1
 : 2482	15	-30	6.6	6	6	-1
CN(CC(=O)Nc1ccccc1Cl)C(=O)Cn1nnc(-c2ccc(F)cc2)n1
 : 6238	-1	-1	-2.4	-2	-9	2
O=C(NCc1cccc(C(F)(F)F)c1)c1cccc(S(=O)(=O)NCc2ccccc2)c1
 : 2415	1	-7	-3.0	10	11	1
CC(C)(C)Cc1nnc(NC(=O)CCC2CCCCC2)s1
 : 4181	-1	-15	-2.3	0	12	0
COc1cccc(/C=C2\CCC(C3CCCC3)C2=O)c1OC (centres undefined)
 : 3846	32	-56	1.6	1	5	7
O=C(COC(=O)C1CCN(C(=O)c2ccc(Cl)cc2)CC1)NC1CCS(=O)(=O)C1 (centres undefined)
 : 3068	4	-8	3.2	17	10	9
S=c1[nH]nc(-c2ccccc2Cl)n1Cc1ccccc1
 : 4868	4	-25	14	-1	11	5
CCS(=O)(=O)Nc1ccc(C2=NN(C(=O)c3ccco3)C(c3ccco3)C2)cc1 (centres undefined)
 : 5921	-2	-29	-3.1	14	3	11
COc1ccc(Cc2noc(CN3CCN(Cc4csc(C)n4)CC3)n2)cc1OC
 : 4395	3	-41	6.1	1	-3	3
CCOc1ccc(N/N=C(/C#N)C(N)=O)cc1
 : 9084	x	-36	x	-6	x	x
NC(=O)N/N=C/CCc1ccccc1
 : 4122	x	-21	x	3	x	x
O=C(NN=Cc1ccc(O)cc1O)C1CC1
 : x	10	x	3.8	x	1	-2
CN(NC(=O)c1ccccc1)C1=NS(=O)(=O)c2ccccc21
 : 3502	-3	-18	1.8	2	1	-1
CCC(C)(C)NC(=O)C(c1cccc(OC)c1OC)N(CC(C)C)C(=O)CCC(=O)Nc1cc(C)on1 (centres undefined)
 : 4658	-1	-10	5.1	1	7	9
COc1ccc(C2CC(=O)C=C(c3ccc(Br)c4ccccc34)C2)cc1 (centres undefined)
 : x	13	x	-3.2	x	16	13
CNC(=O)CSc1nnc(-c2ccco2)n1-c1ccc(C)cc1
 : 4205	6	-6	0.5	-5	4	5
Cc1ccc(C(=O)N[C@H](C(=O)OCc2nnc(-c3ccccc3)o2)C(C)C)cc1
 : 4218	-8	-41	0.6	-4	3	-8
CC(C)CN1CCNC(=O)C1CC(=O)N(C)CC1CCOCC1 (centres undefined)
 : 4272	8	-16	4.3	-6	6	-4
Cc1nnc(NC(=O)CSc2nc3ccccc3[nH]2)s1
 : 3279	13	-15	1.3	0	1	14
CCOC(=O)c1cc2sc(C)cc2n1C(C)C(=O)OCC (centres undefined)
 : 9418	9	-3	8.9	-8	-1	2
CC[N+]1(C)CCCC(OC(=O)C(O)(c2ccccc2)c2ccccc2)C1 (centres undefined)
 : 4186	2	-25	8.7	6	1	10
CSc1ccccc1C(=O)Nc1ccccc1C(=O)N1CCCC1
 : 4132	3	-12	2.7	10	6	13
CCSc1ncc(Cl)c(C(=O)Nc2ccccc2OC)n1
 : 3705	4	-14	4.8	3	20	7
CCOc1ccccc1NC(=O)CSc1nnc2ccc(-c3ccncc3)nn12
 : 3610	-2	-3	1.8	23	12	8
O=S(=O)(NCc1ccccc1)c1cccc(S(=O)(=O)N2CCOCC2)c1
 : 21829*	2	3	3.2	7	-3	-8
Cc1ccc(N2CCN(/N=C/c3ccncc3)CC2)cc1
 : 4551	x	-13	x	1	x	x
